rRNA inh HTS = selective bacterial rRNA inhibition in E. coli; E. coli WT GFP vs humanized-ribosome RFP mutants, fluorescence, 24 h; hits give low values; DMSO median 0, no signal -100; GFP signal change (wild-type ribosome), % (no concentration beside the values); 1.6% of 350,000 active; AID 720706;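 active = significant combined selectivity score with lowered wild-type GFP, culture density cut under 30%, mutant RFP and density less affected; inactive = any of these conditions unmet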; also: one replicate is shown; some compounds called inactive have numbers as strong as hits
FGF22 binding = shifts melting point of recombinant human FGF22. calls only at 9.99 µM. 1.5% of 340,000 active. AID 651658. recombinant FGF22 thermal shift, SYPRO orange fluorescence; percent of sucrose octasulfate shift, DMSO zero;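 active = melting point raised past a set limit in the mean and every replicate; three in four hits are not shown here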
Target sequence (Q9HCT0 whole entry, looked up): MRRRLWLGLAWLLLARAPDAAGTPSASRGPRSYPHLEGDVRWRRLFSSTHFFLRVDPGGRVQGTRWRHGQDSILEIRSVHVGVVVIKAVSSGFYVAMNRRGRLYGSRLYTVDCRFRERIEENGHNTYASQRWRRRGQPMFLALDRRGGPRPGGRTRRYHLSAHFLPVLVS
MLL AF4-AF9 inh = MLL-AF4/AF9 protein interaction inhibition; 0.47% of 350,000 active; inhibition, % at 10 µM; P42568; AlphaScreen, biotin-AF4 peptide binding to FLAG-AF9; AID 651704;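 active = every replicate reaching a set inhibition limit, whatever the replicate mean, cut at about 25% in these data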;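 also: 0% = plate neutral control median and 100% = total signal loss; the record names both 10 and 1 µM as test concentration; the first replicate is given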
Target sequence (P42568 whole entry, looked up): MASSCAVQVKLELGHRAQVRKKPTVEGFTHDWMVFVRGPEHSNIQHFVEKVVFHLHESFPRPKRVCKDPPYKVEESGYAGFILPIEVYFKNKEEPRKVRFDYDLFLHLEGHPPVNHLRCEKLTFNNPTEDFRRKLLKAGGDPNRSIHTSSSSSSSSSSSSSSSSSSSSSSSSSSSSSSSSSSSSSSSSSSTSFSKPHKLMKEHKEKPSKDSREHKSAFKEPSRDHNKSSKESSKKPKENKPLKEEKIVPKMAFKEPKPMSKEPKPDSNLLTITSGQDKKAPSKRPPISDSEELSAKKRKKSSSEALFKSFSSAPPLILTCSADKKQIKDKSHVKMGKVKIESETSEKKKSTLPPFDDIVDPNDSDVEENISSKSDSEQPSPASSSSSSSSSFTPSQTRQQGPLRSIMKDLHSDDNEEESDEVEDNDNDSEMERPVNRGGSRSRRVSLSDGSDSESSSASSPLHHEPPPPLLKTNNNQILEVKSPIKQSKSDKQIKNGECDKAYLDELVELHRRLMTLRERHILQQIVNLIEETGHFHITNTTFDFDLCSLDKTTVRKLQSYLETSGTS
rRNA inh HTS OD600 = also measured in rRNA inh HTS; calls as there; OD600 change, %; measured here: OD600 growth;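 optical density of the mix in the first replicate; 0 = DMSO median and -100 = no signal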
rRNA inh HTS RFP = also measured in rRNA inh HTS; calls as there; RFP signal change, %; measured here: RFP humanized mutant strains;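 first replicate; 0 = DMSO median and -100 = no signal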
* = called active by the depositor; & = joins results of further samples. The list is partial. The share of hits here may be higher or lower than overall.

For C[C@@H]1CCCCO[C@H](CN(C)S(=O)(=O)c2cccs2)[C@H](C)CN([C@H](C)CO)C(=O)c2cc(NS(=O)(=O)c3ccc(Cl)cc3)ccc2O1 the results were rRNA inh HTS -3, FGF22 binding inactive, MLL AF4-AF9 inh 0.3, rRNA inh HTS OD600 3 and rRNA inh HTS RFP -5.0.
For O=C(Cc1cccnc1)N1[C@H](CO)[C@H]2c3ccccc3NC[C@H]21 the results were rRNA inh HTS 1, FGF22 binding inactive, MLL AF4-AF9 inh -0.7, rRNA inh HTS OD600 15 and rRNA inh HTS RFP -3.1.
Screening CO[C@H](CN(C)Cc1ccc2c(c1)OCO2)[C@@H](C)CN(C(=O)c1ccccc1)[C@H](C)CO returned rRNA inh HTS 7, FGF22 binding inactive, MLL AF4-AF9 inh 2.8, rRNA inh HTS OD600 29 and rRNA inh HTS RFP 2.2.
For N#C[C@H]1[C@@H](c2ccccc2C2=CCCCC2)[C@@H](CO)N1C(=O)c1cccc(F)c1 the results were rRNA inh HTS -7, FGF22 binding inactive, MLL AF4-AF9 inh 2.6, rRNA inh HTS OD600 -60 and rRNA inh HTS RFP 21.
Screening COC1=C(Br)C(=O)c2ncccc2C1=O returned rRNA inh HTS 17, FGF22 binding inactive, MLL AF4-AF9 inh -17, rRNA inh HTS OD600 12 and rRNA inh HTS RFP 37.
For CO[C@H]1CN(C)C(=O)c2cc(NC(=O)c3ccc(Oc4ccccc4)cc3)ccc2OC[C@H](C)NC[C@H]1C the results were rRNA inh HTS -42&-13, FGF22 binding inactive, MLL AF4-AF9 inh -0.2, rRNA inh HTS OD600 -72&-29 and rRNA inh HTS RFP 12&9.8.
`O=C(O)C[C@@H]1C[C@H]2c3cc(NS(=O)(=O)c4ccccc4)ccc3O[C@H]2[C@@H](CO)O1` gave rRNA inh HTS 4, FGF22 binding inactive, MLL AF4-AF9 inh 0.5, rRNA inh HTS OD600 13 and rRNA inh HTS RFP 0.1.
Screening Cc1ccc(S(=O)(=O)N(C)C[C@H]2Oc3c(NC(=O)C4CC4)cccc3C(=O)N([C@H](C)CO)C[C@@H]2C)cc1 returned rRNA inh HTS -3, FGF22 binding inactive, MLL AF4-AF9 inh -2.1, rRNA inh HTS OD600 4 and rRNA inh HTS RFP -1.8.
Screening C[C@H](CO)N1C[C@H](C)[C@@H](CN(C)C(=O)CCC(F)(F)F)OCCCC[C@H](C)Oc2ccc(NC(=O)CCC(F)(F)F)cc2C1=O returned rRNA inh HTS -2, FGF22 binding inactive, MLL AF4-AF9 inh -1.0, rRNA inh HTS OD600 1 and rRNA inh HTS RFP -1.1.
CCCCCC1=C(C(=O)OC)C(C(=O)OCC)N(S(=O)(=O)C(F)(F)F)c2ccccc21 (stereo not given) was read as rRNA inh HTS -27, FGF22 binding inactive, MLL AF4-AF9 inh -1.6, rRNA inh HTS OD600 -43 and rRNA inh HTS RFP -8.8.
Screening C[C@@H]1CN([C@H](C)CO)C(=O)c2cc(/C=C/c3ccccc3)cnc2O[C@H]1CN(C)C(=O)Cc1cccnc1 returned rRNA inh HTS -7, FGF22 binding inactive, MLL AF4-AF9 inh 1.6, rRNA inh HTS OD600 -10 and rRNA inh HTS RFP 0.6.
Screening CCNC(=O)[C@@H]1[C@@H](CO)[C@@H]2Cn3c(ccc(-c4ccccc4F)c3=O)[C@H]1N2Cc1cccnc1 returned rRNA inh HTS 0, FGF22 binding inactive, MLL AF4-AF9 inh -0.3, rRNA inh HTS OD600 3 and rRNA inh HTS RFP -0.8.
`OC(c1ccccc1)c1nc(-c2cc3ccccc3o2)cs1` (stereo not given) gave rRNA inh HTS -33, FGF22 binding inactive, MLL AF4-AF9 inh -4.2, rRNA inh HTS OD600 -27 and rRNA inh HTS RFP -16.
`COCC(=O)N(C)C[C@H]1Oc2cc(-c3ccc(C)cc3)ccc2S(=O)(=O)N([C@H](C)CO)C[C@H]1C` gave rRNA inh HTS -3, FGF22 binding inactive, MLL AF4-AF9 inh -1.3, rRNA inh HTS OD600 -8 and rRNA inh HTS RFP -0.8.
O=C(C[C@H]1CC[C@@H]2[C@H](COC[C@@H](O)CN2S(=O)(=O)c2ccccc2)O1)N1CCOCC1 was read as rRNA inh HTS 2, FGF22 binding inactive, MLL AF4-AF9 inh -10, rRNA inh HTS OD600 13 and rRNA inh HTS RFP -3.4.
Screening C[C@@H]1CN([C@@H](C)CO)C(=O)Cc2cc(NC(=O)c3ccncc3)ccc2O[C@@H]1CN(C)Cc1ccc(C(=O)Nc2ccccc2N)cc1 returned rRNA inh HTS -4, FGF22 binding inactive, MLL AF4-AF9 inh 2.4, rRNA inh HTS OD600 -6 and rRNA inh HTS RFP -1.2.
`O=C(C[C@H]1C=C[C@@H](NC(=O)C2CCC2)[C@@H](CO)O1)Nc1nccs1` gave rRNA inh HTS 2, FGF22 binding inactive, MLL AF4-AF9 inh -2.6, rRNA inh HTS OD600 4 and rRNA inh HTS RFP 0.2.
Screening O=C(Nc1ccc2c(c1)[C@H]1C[C@H](CC(=O)N3CCCCC3)O[C@@H](CO)[C@H]1O2)C1CCOCC1 returned rRNA inh HTS 6, FGF22 binding inactive, MLL AF4-AF9 inh -4.1, rRNA inh HTS OD600 14 and rRNA inh HTS RFP -3.4.
For C[C@H](CO)N1C[C@H](C)[C@@H](CN(C)Cc2cccnc2)Oc2cc(-c3ccccc3)ccc2S1(=O)=O the results were rRNA inh HTS -39, FGF22 binding inactive, MLL AF4-AF9 inh 4.1, rRNA inh HTS OD600 -52 and rRNA inh HTS RFP 36.
Cc1cccc(S(=O)(=O)N[C@@H]2CC[C@@H](CCNS(=O)(=O)c3ccccc3F)O[C@@H]2CO)c1 was read as rRNA inh HTS 1&-6, FGF22 binding inactive, MLL AF4-AF9 inh -3.5&-0.5, rRNA inh HTS OD600 -9&-6 and rRNA inh HTS RFP 1.9&4.3.
`O=C(N[C@H]1C=C[C@H](CC(=O)N2CCc3ccccc3C2)O[C@H]1CO)C1CC1` gave rRNA inh HTS 0, FGF22 binding inactive, MLL AF4-AF9 inh -2.3, rRNA inh HTS OD600 -1 and rRNA inh HTS RFP -3.0.
CO[C@H]1CN(C)C(=O)c2cc(NC(=O)C3CC3)ccc2OC[C@H](C)N(CC2CCOCC2)C[C@@H]1C was read as rRNA inh HTS -2, FGF22 binding inactive, MLL AF4-AF9 inh -9.4, rRNA inh HTS OD600 -4 and rRNA inh HTS RFP 3.4.
`Cc1noc(C)c1S(=O)(=O)Nc1cccc2c1O[C@@H](CN(C)C(=O)NC(C)C)[C@@H](C)CN([C@H](C)CO)C2=O` gave rRNA inh HTS 3, FGF22 binding inactive, MLL AF4-AF9 inh -2.8, rRNA inh HTS OD600 -5 and rRNA inh HTS RFP -0.4.
For C[C@@H]1CN([C@H](C)CO)C(=O)CCCn2cc(nn2)CO[C@@H]1CN(C)S(=O)(=O)c1ccccc1C#N the results were rRNA inh HTS 0, FGF22 binding inactive, MLL AF4-AF9 inh -1.7, rRNA inh HTS OD600 0 and rRNA inh HTS RFP 0.4.
For CCOC(=O)C1=CCN(S(=O)(=O)c2cccc(Cl)c2)C1c1cccc(F)c1 (stereo not given) the results were rRNA inh HTS -22, FGF22 binding inactive, MLL AF4-AF9 inh -1.1, rRNA inh HTS OD600 -29 and rRNA inh HTS RFP -7.2.
For C[C@@H]1CCCCO[C@@H](CN(C)CC2CCCCC2)[C@@H](C)CN([C@H](C)CO)C(=O)c2cc(NS(=O)(=O)c3cn(C)cn3)ccc2O1 the results were rRNA inh HTS 0, FGF22 binding inactive, MLL AF4-AF9 inh -7.3, rRNA inh HTS OD600 11 and rRNA inh HTS RFP -0.7.
Screening C[C@]12c3[nH]c4cc(-c5ccco5)ccc4c3CCN1C(=O)[C@@H](CC(=O)NCc1cccc(C(F)(F)F)c1)C[C@@H]2C(=O)N1CCOCC1 returned rRNA inh HTS 9, FGF22 binding inactive, MLL AF4-AF9 inh 2.2, rRNA inh HTS OD600 9 and rRNA inh HTS RFP 24.
Screening Cc1ccc(S(=O)(=O)N(C)C[C@@H]2Oc3ccc(NC(=O)Cc4ccccc4)cc3CC(=O)N([C@@H](C)CO)C[C@@H]2C)cc1 returned rRNA inh HTS -1, FGF22 binding inactive, MLL AF4-AF9 inh 4.9, rRNA inh HTS OD600 9 and rRNA inh HTS RFP -1.0.
`Cc1ccccc1S(=O)(=O)N(C)C[C@@H]1OCc2ccccc2-c2ccccc2C(=O)N([C@H](C)CO)C[C@H]1C` gave rRNA inh HTS -3, FGF22 binding inactive, MLL AF4-AF9 inh 13, rRNA inh HTS OD600 -10 and rRNA inh HTS RFP 2.2.
For Clc1cccc(-c2cc3nc(NCCOc4ccccc4)ccn3n2)c1 the results were rRNA inh HTS 6, FGF22 binding inactive, MLL AF4-AF9 inh 0.3, rRNA inh HTS OD600 7 and rRNA inh HTS RFP 21.
`CC1(C(=O)NCc2ccco2)Cc2c(-c3cccc(C(N)=O)c3)ccnc2O1` (stereo not given) gave rRNA inh HTS -1, FGF22 binding inactive, MLL AF4-AF9 inh 0.0, rRNA inh HTS OD600 -9 and rRNA inh HTS RFP -5.3.
CCCNC(=O)C[C@@H]1C[C@@H]2c3cc(NS(=O)(=O)c4ccc(F)cc4)ccc3O[C@@H]2[C@@H](CO)O1 was read as rRNA inh HTS -2, FGF22 binding inactive, MLL AF4-AF9 inh -1.4, rRNA inh HTS OD600 -2 and rRNA inh HTS RFP -4.0.
COc1cccc(C#Cc2ccc([C@@H]3[C@H](C#N)N[C@H]3CO)cc2)c1 was read as rRNA inh HTS -4, FGF22 binding inactive, MLL AF4-AF9 inh -2.0, rRNA inh HTS OD600 8 and rRNA inh HTS RFP 0.5.
For CC(=O)N(C)C[C@@H]1Oc2ncc(-c3cccc(F)c3)cc2C(=O)N([C@@H](C)CO)C[C@@H]1C the results were rRNA inh HTS 0, FGF22 binding inactive, MLL AF4-AF9 inh -0.9, rRNA inh HTS OD600 5 and rRNA inh HTS RFP 1.6.
C[C@H](NC(=O)C[C@@H]1CC[C@H]2[C@@H](COC[C@H](O)CN2Cc2ccc(C(F)(F)F)cc2)O1)c1ccccc1 was read as rRNA inh HTS -11, FGF22 binding inactive, MLL AF4-AF9 inh -8.9, rRNA inh HTS OD600 -12 and rRNA inh HTS RFP -1.9.
For Cc1ccc(S(=O)(=O)NCC(=O)OCC(=O)c2ccc(S(=O)(=O)N3CCCCC3)cc2)cc1C the results were rRNA inh HTS 16, FGF22 binding inactive, MLL AF4-AF9 inh -1.2, rRNA inh HTS OD600 10 and rRNA inh HTS RFP 4.6.
Screening C[C@@H](O)C#Cc1ccc([C@@H]2[C@H]3CN(S(=O)(=O)c4ccccc4)CCCCN3[C@H]2CO)cc1 returned rRNA inh HTS 0, FGF22 binding inactive, MLL AF4-AF9 inh -3.9, rRNA inh HTS OD600 0 and rRNA inh HTS RFP -3.8.
COc1ccccc1NC(=O)N[C@@H]1CC[C@H](CC(=O)N[C@H](C)c2ccccc2)O[C@H]1CO was read as rRNA inh HTS 5, FGF22 binding inactive, MLL AF4-AF9 inh -3.1, rRNA inh HTS OD600 0 and rRNA inh HTS RFP 1.3.

Reprinted from the results shown, 7 compounds:
For CCOC(=O)C1=CCN(S(=O)(=O)c2cccc(Cl)c2)C1c1cccc(F)c1 (stereo not given) the results were rRNA inh HTS -22, FGF22 binding inactive, MLL AF4-AF9 inh -1.1, rRNA inh HTS OD600 -29 and rRNA inh HTS RFP -7.2.
For C[C@@H]1CCCCO[C@@H](CN(C)CC2CCCCC2)[C@@H](C)CN([C@H](C)CO)C(=O)c2cc(NS(=O)(=O)c3cn(C)cn3)ccc2O1 the results were rRNA inh HTS 0, FGF22 binding inactive, MLL AF4-AF9 inh -7.3, rRNA inh HTS OD600 11 and rRNA inh HTS RFP -0.7.
Screening C[C@]12c3[nH]c4cc(-c5ccco5)ccc4c3CCN1C(=O)[C@@H](CC(=O)NCc1cccc(C(F)(F)F)c1)C[C@@H]2C(=O)N1CCOCC1 returned rRNA inh HTS 9, FGF22 binding inactive, MLL AF4-AF9 inh 2.2, rRNA inh HTS OD600 9 and rRNA inh HTS RFP 24.
Screening Cc1ccc(S(=O)(=O)N(C)C[C@@H]2Oc3ccc(NC(=O)Cc4ccccc4)cc3CC(=O)N([C@@H](C)CO)C[C@@H]2C)cc1 returned rRNA inh HTS -1, FGF22 binding inactive, MLL AF4-AF9 inh 4.9, rRNA inh HTS OD600 9 and rRNA inh HTS RFP -1.0.
`Cc1ccccc1S(=O)(=O)N(C)C[C@@H]1OCc2ccccc2-c2ccccc2C(=O)N([C@H](C)CO)C[C@H]1C` gave rRNA inh HTS -3, FGF22 binding inactive, MLL AF4-AF9 inh 13, rRNA inh HTS OD600 -10 and rRNA inh HTS RFP 2.2.
For Clc1cccc(-c2cc3nc(NCCOc4ccccc4)ccn3n2)c1 the results were rRNA inh HTS 6, FGF22 binding inactive, MLL AF4-AF9 inh 0.3, rRNA inh HTS OD600 7 and rRNA inh HTS RFP 21.
`CC1(C(=O)NCc2ccco2)Cc2c(-c3cccc(C(N)=O)c3)ccnc2O1` (stereo not given) gave rRNA inh HTS -1, FGF22 binding inactive, MLL AF4-AF9 inh 0.0, rRNA inh HTS OD600 -9 and rRNA inh HTS RFP -5.3.

From PubChem BioAssay
